CDC25B-CDK2 inh – human CDC25B-CDK2/CyclinA binding inhibition; AID 1259370; P30305+P24941; 94,000 tested, 0.72% active; z-score (test concentration not listed); HTRF CDC25B-CDK2/CyclinA binding, anti-His/anti-Flag; active compounds read high;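 also: score is relative to mean and SD of negative controls; strong numbers were not always called active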
TAR Tat displ – HIV-1 TAR-Tat binding disruption; HIV-1 TAR RNA, Tat peptide displacement FRET; active compounds read high; z-score (no concentration beside the values); 100,000 tested, 0.6% active;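 also: score is relative to mean and SD of negative controls; some compounds called inactive have numbers as strong as hits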
Active calls of the source: *; nt = not tested or not shown.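 The calls were made as follows: active = z-score from 3 up in half or more of its runs; inactive = the rest.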

Results follow in this order: TAR Tat displ | CDC25B-CDK2 inh
Cc1c(O)ccc(-c2[nH]ncc2-c2nc3ccccc3s2)c1O
→ 0.56 | 0.82
O=C(NCC1CCCO1)C(=O)NCC(c1cccs1)S(=O)(=O)c1cccs1 (configuration not stated)
→ 1.8 | nt
CC1CCN(C(=O)c2oc3ccccc3c2N)CC1
→ 0.9 | 1.4
NS(=O)(=O)c1cc(Br)c(Cl)s1
→ nt | 0.23
O=C(CN1CCc2ccccc21)Nc1nnc(-c2cccs2)s1
→ nt | -1.8
O=C(/C(=N/O)c1nc2ccccc2s1)c1ccco1
→ nt | -0.11
N=C1S/C(=C\c2ccc(-c3cccc(C(=O)O)c3)o2)C(=O)N1c1ccc2c(c1)OCO2
→ nt | -2.3
CCN1C(=O)C(O)(CC(=O)c2ccc3c4c(cccc24)CC3)c2ccccc21 (configuration not stated)
→ 0.23 | 0.69
Cc1cc(C)cc(NC(=O)CSc2nnc(C)n3c2cc2occc23)c1
→ 1.4 | nt
CCOC(=O)COc1ccc2c(=O)c(Oc3ccc(OC)cc3)coc2c1
→ 1.1 | 0.15
Cc1ccc(CS(=O)(=O)c2ccc3c(c2)S(=O)(=O)N=CN3)cc1
→ -0.05 | nt
O=C(NCCOc1cccc2ccccc12)C1CCCN1S(=O)(=O)c1ccc2ccccc2c1 (configuration not stated)
→ nt | -1
Cc1cc(C)cc(Nc2nc3ccccc3n3nnnc23)c1
→ -0.39 | 0.61
C=CCn1c(C(CCC(C)C)CC(C)(C)O)n[nH]c1=S (configuration not stated)
→ nt | -0.31
CN(/C=C/c1nnnn1-c1ccccc1)c1ccccc1
→ nt | -1.1
O=C(Cn1c(=O)n(Cc2nc(-c3ccccc3)no2)c(=O)c2cc3c(cc21)OCO3)c1ccccc1
→ -0.02 | nt
CCCCCN1CC(C)C(=O)Nc2ccccc21 (configuration not stated)
→ -1.5 | -0.27
COCCCn1c2c(c(=O)[nH]c1=O)C(c1ccccc1)C1=C(N2)c2ccccc2C1=O (configuration not stated)
→ 1.4 | -1.6
N#CC(C#N)=NNc1ccc2c(c1)OCCO2
→ nt | 1.3
Cc1cccc2c1N(CC(C)C)C(=O)C2=O
→ 0.71 | 0.42
COc1ccc(S(=O)(=O)c2ccc3n[nH]c(=O)n3n2)cc1
→ 1.2 | -0.52
Cc1c(-c2nnc(C(=O)N3CCN(c4ccc(Cl)cc4)CC3)o2)oc2ccccc12
→ 0.17 | nt
Cc1ccc(COc2ccc(C3CC(=O)Nc4c3c(C)nn4-c3ccc4nnc(C)n4n3)cc2)cc1 (configuration not stated)
→ -0.44 | nt
COc1cc(Cl)cc2c1OC=CC(C(=O)Nc1ccc(S(N)(=O)=O)cc1)=C2
→ 0.63 | -0.76
CCCc1nnc(NC(=O)c2nn(-c3ccc(OC)cc3)ccc2=O)s1
→ -0.29 | -1.1
COCCN(CCc1ccncc1)S(=O)(=O)c1cc2[nH]c3c(c2cc1C)C(=O)CCC3
→ 1 | nt
O=c1cc(CSc2ccccc2)[nH]c2ccc(F)cc12
→ -0.29 | nt
Cc1cc(-c2ccc(C)c(S(=O)(=O)Nc3ccc4c(c3)OCCO4)c2)on1
→ 0.85 | nt
Cc1cccc(-n2nnc(-c3nc(-c4ccc5c(c4)OCO5)no3)c2C)c1
→ 0.17 | nt
O=C(NCC1CCCO1)c1ccc(COc2ccc(F)cc2)o1 (configuration not stated)
→ -1.1 | 0.91
COc1ccc(-c2n[nH]c(=O)c(Cc3ccc(Cl)cc3)n2)cc1
→ 2.9 | nt
CSc1nc2n(n1)C(c1ccccc1F)C1=C(CCCC1=O)N2 (configuration not stated)
→ -1.1 | -2.5
CCOC(=O)C1=C(C)Nc2nc(C)nn2C1c1ccc(OCC)c(OC)c1 (configuration not stated)
→ -0.35 | -2.5
Cc1noc2ncnc(N3CCCC(C(=O)N4CCc5ccccc54)C3)c12 (configuration not stated)
→ 1.8 | nt
ON=C(c1nc2ccccc2[nH]1)c1nc2ccccc2[nH]1
→ nt | 2.4
O=C(O)C1C2C=CC(C2)C1C(=O)NCc1ccccn1 (configuration not stated)
→ 3.4 | -2
Cc1cc(=O)nc2c3ccccc3n(CC(=O)NCCCN3CCC(N4CCCCC4)CC3)n12
→ -0.78 | 0.41
CCS(=O)(=O)N1CCCc2ccc(NS(=O)(=O)c3ccc(OC)c(C)c3)cc21
→ -1 | nt
CC(=O)c1c(O)c(C)c(-c2ccccc2)n(-c2ccccc2)c1=O
→ nt | -3
CC(C)(CC(=O)O)CC(=O)Nc1ccc(OC(F)F)cc1
→ nt | -1.8
COC(=O)CSc1nc2c(c(=O)n(C)c(=O)n2C)n1CCC(C)C
→ nt | -1.5
CCN(CC)S(=O)(=O)c1ccc(-c2ccc(=O)[nH]n2)o1
→ 1.3 | nt
CC(C)Cn1c(=O)c2ccccc2n2c(CCC(=O)NCC3CCCO3)nnc12 (configuration not stated)
→ 0.39 | -0.9
Cc1nnc(SCCC(C)C)[nH]c1=O
→ 0.6 | -0.4
CCC(=O)N1CCc2cc(Br)cc(S(=O)(=O)Nc3noc4ccccc34)c21
→ 1.2 | -0.01
O=C(CSc1ccc2nnc(-c3ccc(F)cc3)n2n1)Nc1ccc(F)cc1
→ nt | -2.4
O=C1CC(c2ccccc2)CC2=C1C(c1ccccc1F)Nc1ccccc1N2 (configuration not stated)
→ nt | -1.2
O=C1Nc2ccccc2OC1CC(=O)N1CCN(C2CCCCC2)CC1 (configuration not stated)
→ 2.9 | -3
c1ccc2c(c1)nc(Nc1ccc(N3CCCCC3)cc1)c1nnnn12
→ 0.86 | -0.85
CCc1ccc(S(=O)(=O)N2CCN(c3nc4ccccc4n4cccc34)CC2)cc1
→ 1.1 | -0.7
CC1CSc2ccc(S(=O)(=O)NCCCN3CCCC3)cc2NC1=O (configuration not stated)
→ 0.89 | nt
N#CCCC(C#N)(CCC#N)C(N)=O
→ nt | -2
O=C(NCCc1c[nH]c2ccccc12)c1cc2c(Cl)ccc3c2n1CCO3
→ 0 | nt
Cn1cc(S(=O)(=O)N2CCOCC2)cc1C(=O)NCc1cccs1
→ 0.16 | nt
COC(=O)c1sccc1NC(=O)c1ccc2ncccc2c1
→ nt | -0.85
O=C(C1CC1)N1c2ccccc2CCc2ccccc21
→ 0.85 | -1
CC(C)C(=O)N(c1ccc2oc(=O)sc2c1)S(=O)(=O)c1ccc(F)cc1
→ -0.1 | -2.9
O=C(CSc1ncc(-c2ccccc2)nn1)NC1=NN=C(c2ccccc2)CS1
→ 9.2 | -1
Cc1c(Cl)c([N+](=O)[O-])nn1CCCC(=O)Nc1sc2c(c1C(N)=O)CCCC2
→ nt | -0.9
CCOC(=O)/C(C#N)=C/N=C(N/N=C/c1c(F)cccc1Cl)SC
→ nt | -1.4

In a second layout: entries from further up.
mol: CC1CSc2ccc(S(=O)(=O)NCCCN3CCCC3)cc2NC1=O (configuration not stated)
  TAR Tat displ: 0.89
  CDC25B-CDK2 inh: nt

mol: CC(C)C(=O)N(c1ccc2oc(=O)sc2c1)S(=O)(=O)c1ccc(F)cc1
  TAR Tat displ: -0.1
  CDC25B-CDK2 inh: -2.9

mol: O=C(C1CC1)N1c2ccccc2CCc2ccccc21
  TAR Tat displ: 0.85
  CDC25B-CDK2 inh: -1

mol: Cc1nnc(SCCC(C)C)[nH]c1=O
  TAR Tat displ: 0.6
  CDC25B-CDK2 inh: -0.4

(more compounds)
Results follow in this order: TAR Tat displ | CDC25B-CDK2 inh
CCc1ccc(Nc2nc3ccccc3n3nnnc23)cc1
→ 0.25 | -0.57
O=C(CCCn1c(=O)c2sccc2n(Cc2ccc(F)cc2)c1=O)NCc1ccc2c(c1)OCO2
→ -2.1 | 8.3
O=C(NC1CCCC1)c1ccc2oc(=O)n(Cc3ccccc3)c2c1
→ 1.2 | nt
CC1=C(c2ccc(C)cc2)S(=O)(=O)N=C1Nc1ccc(Br)c(C)c1
→ -2.2 | -1.9
O=C1N(Cc2ccccc2)c2ccccc2S(=O)(=O)N1Cc1ccccc1
→ 0.76 | nt
CCCc1nc2nc(C)c(N)c(=O)n2[nH]1
→ 0.58 | -2.3
O=S(=O)(c1ccccc1)n1nc(-c2ccc(Cl)cc2)nc1NCc1ccco1
→ -1.2 | -0.51
CCCCCn1c(=O)c2c(nc3n2CCN3c2ccc(C)cc2)n(C)c1=O
→ 5.2* | nt
Cc1[nH]c2ccccc2c1C(Nc1ccccn1)c1cccs1 (configuration not stated)
→ nt | -0.05
Cn1c2ccccc2c2nnc(SCC(=O)Nc3nc4ccccc4s3)nc21
→ 0.77 | -2.2
Cc1cn2c(nc1=O)OC1CC2OC1CO (configuration not stated)
→ nt | -0.42
COc1ccc(OC)c(S(=O)(=O)N2CCN(C(=O)c3nsc4ccccc34)CC2)c1
→ 1.2 | -1.2
O=C(Nc1ccc2c(c1)OCO2)c1nccnc1CO
→ 1.1 | -0.88
Cc1nn(CC(=O)NC(C)c2ccc3c(c2)OCCO3)c(=O)c2cccn12 (configuration not stated)
→ 1.3 | -2.4
O=C(Nc1cccnc1)C1CC(c2ccc(F)cc2)=NO1 (configuration not stated)
→ 0.02 | -0.9
CSc1cccc(NC(=O)C(C)N2Cc3ccccc3C2=O)c1 (configuration not stated)
→ 1.3 | nt
c1ccc(C[C@H]2COC(C3=N[C@H](Cc4ccccc4)CO3)=N2)cc1
→ nt | -3.1
CCCCNC(=O)c1sc2nc3n(c(=O)c2c1C)CCC3
→ 1.1 | nt
O=C(CCS(=O)(=O)c1ccc2c(c1)CCN2C(=O)C1CC1)Nc1ccc(Br)cc1F
→ 0.3 | nt
CCOc1ccccc1Oc1c(C)oc2cc(OC(=O)N3CCOCC3)ccc2c1=O
→ 2.6 | -2.4

The final 2 entries of the section before open the next one.
Results follow in this order: TAR Tat displ | CDC25B-CDK2 inh
O=C(CCS(=O)(=O)c1ccc2c(c1)CCN2C(=O)C1CC1)Nc1ccc(Br)cc1F
→ 0.3 | nt
CCOc1ccccc1Oc1c(C)oc2cc(OC(=O)N3CCOCC3)ccc2c1=O
→ 2.6 | -2.4
COCc1snnc1C(=O)OC
→ nt | -1.5
Clc1cccc2c(N3CCN(Cc4ccc5c(c4)OCO5)CC3)cnnc12
→ -0.29 | nt
COc1ccc(C2CC(c3c(O)n(C)c(=O)n(C)c3=O)=NN2C)cc1 (configuration not stated)
→ 1.4 | -1.6
Cc1ccc2c(c1)-c1c(cnn1CC(=O)Nc1cc(C)on1)CO2
→ 0.17 | -2.3
COc1cc(/C=C/C(=O)Nc2ccc(Cl)c(Cl)c2)cc(OC)c1OC
→ nt | 0.94
CCCCCCn1c(C(C)O)nc2ccccc21 (configuration not stated)
→ 1.1 | -1.1
C=CCN(C(=O)Cn1nc(Cc2cccnc2)c2ccccc2c1=O)c1ccccc1
→ 6.6 | -1.9
O=C1CC(Nc2cccc(Cl)c2)C(=O)N1c1cccc(Cl)c1 (configuration not stated)
→ 2.4 | -0.23
CCN(CC)CC(O)Cn1c2c(c3cc(Cl)ccc31)CCCC2=O (configuration not stated)
→ nt | -0.34
Nc1nc(SCC(=O)NCc2cccnc2)nc2sc3c(c12)CCCC3
→ 0 | -0.58
O=C(CSc1ncccn1)Nc1ccc(F)c(Cl)c1
→ nt | -0.15
CCOC(=O)C1CCN(c2nc3cccnc3n(CC)c2=O)CC1
→ 0.63 | -0.07
CC1C(=O)Nc2ccc(S(=O)(=O)N3CCn4c3nc3ccccc34)cc2NC1=O (configuration not stated)
→ -0.27 | -1.2
O=C(Nc1ccccc1Cl)Nc1c[nH]c(=O)[nH]c1=O
→ 2.1 | nt
c1cc2c(cc1-c1noc(-c3ccc4c(c3)OCO4)n1)nnn2C1CCCC1
→ -0.46 | nt
CCOC(=O)c1[nH]c(C)c(CN(CC2CCCO2)C(=O)CC2CCCC2)c1C (configuration not stated)
→ 0.58 | nt
CCNc1nc(NCC)nc(OCCOC(C)=O)n1
→ -1.2 | 0.87
C=CCSc1nc2c(c(=O)n1CC1CCCC1)C1(CCCCC1)Cc1ccccc1-2
→ nt | -2.7
Cc1ccc(C2OC3(C(=O)c4ccccc4C3=O)C3C(=O)N(c4ccc(F)cc4)C(=O)C23)cc1 (configuration not stated)
→ 0.31 | -0.69
COC(=O)C1=C(Nc2ccc(O)cc2)CSC1
→ nt | -2
Cc1nc(N2CCN(C)CC2)cc(N2CCN(C(=O)Nc3ccc(Cl)cc3)CC2)n1
→ -0.36 | 0.42
Cc1ccccc1C(=O)Nc1cc(C#N)c2[nH]c3ccccc3n2c1=O
→ -3.4 | 0.34
COc1ccc(-c2cc(-c3nc(-c4ccc(OC)c(OC)c4)no3)[nH]n2)cc1
→ -0.3 | nt
Cc1cccc(CNCc2ccc3c(c2)OCO3)c1
→ 0.88 | 0.04
O=C1c2ccccc2-c2onc3c(N4CCN(CCO)CC4)cc(NCc4ccco4)c1c23
→ -5.5 | 0.21
CSc1nn(C)c2nc3c(c(=O)n12)C(C)(C)Cc1ccccc1-3
→ -1.1 | -0.15
CC(C)C(=O)c1c(C(C)C)nn2ccccc12
→ nt | 1
CSc1cccc(NC(=O)C(C)n2sc3ccccc3c2=O)c1 (configuration not stated)
→ 1.6 | -1.3
Cc1c(C)c(C)c(S(=O)(=O)N2CCCC2)c(C)c1C
→ nt | -1.2
COc1ccccc1OCCCn1c(C2CC(=O)N(c3ccc(F)cc3)C2)nc2ccccc21 (configuration not stated)
→ 0.25 | -1.1
CCCCNC(=O)c1sc2ncn(CC(=O)N3CCCCC3)c(=O)c2c1C
→ 0.68 | nt
COC(=O)[C@@]1(C)CC[C@]2(C)CC[C@]3(C)C(=CCC4[C@@]5(C)CCC(O)C(C)(C)C5CC[C@]43C)C2C1 (some centres not stated)
→ nt | 5.2*
NCCNC(=O)c1ccc(Cl)cc1
→ -1.8 | nt
CN(n1cnc2ccccc2c1=O)S(C)(=O)=O
→ nt | -1.4

Bioassay records: PubChem, Center for Chemical Genomics, University of Michigan
